High-throughput results: PubChem BioAssay, Broad Institute
NOMO-1 viab: NOMO-1 AML cell viability reduction, primary screen, STK33 inhibitor project, CellTiter-Glo luminescence; NOMO-1 AML viability, 72 h; inhibition, % (concentration not given with the values); 37,000 compounds, 7.5% hits; AID 2330, 2010;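 active means most replicates above 80%; inconclusive means exactly half above 80%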;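 further: wells of about 30 µL received 25 nL stock; 0% = median of vehicle wells and 100% = reference inhibitor level; the first replicate is given; inactives centre near 10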
* = called active by the depositor; ? = inconclusive. Some of the compounds tested; rates above refer to the full screens.

SMILES | NOMO-1 viab
CS(=O)(=O)N(CC(=O)Nc1cc(Cl)cc(Cl)c1)c1ccc(Cl)cc1 | 12
COC(=O)Cc1c(C)nc2nc(-c3ccccc3)[nH]n2c1=O | 9
Cc1cc(S(=O)(=O)NCCC(=O)O)ccc1F | 4
COc1ccc(C(=O)NCC(=O)Nc2ccc(F)cc2)cc1OC | 24
C[C@H]1CN([C@@H](C)CO)C(=O)c2cccc(NC(=O)Nc3ccccc3)c2O[C@@H]1CN(C)C(=O)Nc1ccc(C(F)(F)F)cc1 | 6
OCCN(Cc1ccccc1)c1ncnc2c1sc1nc(N3CCOCC3)c3c(c12)CCCC3 | 20
C[C@H](CO)N1C[C@H](C)[C@H](CN(C)CC2CCCCC2)Oc2ccc(NC(=O)CCCCCC(=O)Nc3ccccc3N)cc2C1=O | ?
C[C@@H]1CCCCO[C@@H](CN(C)S(=O)(=O)c2cccs2)[C@@H](C)CN([C@H](C)CO)C(=O)c2cc(NS(=O)(=O)c3cn(C)cn3)ccc2O1 | 13
CCn1c(SCC(=O)c2ccc(OC)cc2)nnc1-c1ccc(C)cc1 | -4
O=C(CSc1ncnc2sc(-c3ccccc3)cc12)c1ccc2c(c1)OCCO2 | 20
O=c1c(=O)n2c(nn1CN1CCOCC1)sc1ccccc12 | -9
COC(=O)c1c(NC(=O)CC2Nc3cccc4cccc(c34)NC2=O)sc(C)c1C (configuration not stated) | 56
CNC[C@@H]1Oc2c(NC(=O)NC(C)C)cccc2C(=O)N([C@@H](C)CO)C[C@@H]1C | 13
C[C@H]1CN([C@@H](C)CO)C(=O)c2cccc(NC(=O)Nc3ccccc3)c2O[C@H]1CN(C)S(=O)(=O)c1ccc(Cl)cc1 | 35
CC(C)NC(=O)Nc1ccc2c(c1)CC(=O)N([C@H](C)CO)C[C@@H](C)[C@H](CN(C)S(=O)(=O)c1cccs1)O2 | -2
COc1ccc(NC(=O)N(C)C[C@H]2Oc3ccc(NC(=O)Nc4ccc(F)cc4)cc3CC(=O)N([C@@H](C)CO)C[C@@H]2C)cc1 | -5
COc1cc([N+](=O)[O-])ccc1NC(=O)c1ccccc1OCC(=O)NC(C)(C)C | 9
Cc1noc(C)c1NC(=O)N(C)C[C@H]1Oc2c(NC(=O)c3nc4ccccc4s3)cccc2C(=O)N([C@@H](C)CO)C[C@@H]1C | 18
COc1ccc(S(=O)(=O)N(C)C[C@H]2Oc3ccc(NC(=O)Nc4ccccc4)cc3CC(=O)N([C@@H](C)CO)C[C@H]2C)cc1 | 68
Cc1onc(-c2ccccc2Cl)c1C(=O)N(Cc1nc(-c2ccccc2)no1)C1CCCCC1 | ?
C[C@@H]1CN([C@H](C)CO)C(=O)Cc2cc(NS(=O)(=O)c3ccccc3)ccc2O[C@H]1CN(C)Cc1ccc(C(F)(F)F)cc1 | 49
C[C@@H]1CN([C@@H](C)CO)C(=O)c2cccc(NC(=O)c3cnccn3)c2O[C@@H]1CN(C)S(=O)(=O)c1ccc(F)cc1 | 8
Cc1ccc(C(=O)Nc2ccccc2C(=O)N2CCCC2)cc1S(=O)(=O)N1CCOCC1 | -13
C[C@@H]1CCCCO[C@H](CN(C)C(=O)Nc2ccccc2)[C@@H](C)CN([C@H](C)CO)C(=O)c2cc(NS(=O)(=O)c3ccc(Cl)cc3)ccc2O1 | 29
CC(C)NC(=O)N(C)C[C@@H]1Oc2ccc(NC(=O)Nc3ccc(C(F)(F)F)cc3)cc2C(=O)N([C@H](C)CO)C[C@@H]1C | 8
O=c1cc(-c2ccccc2)oc2cc(Cl)cc(Cl)c12 | 3
COC(=O)CN(c1ccc(C)c(Cl)c1)S(=O)(=O)c1ccccc1 | 30
O=C(O)COc1cccc(-c2nc3ccccc3s2)c1 | 27
CC(=O)c1ccc(NC(=O)CSc2nnc(-c3cccs3)n2-c2ccccc2)cc1 | 46
COC(=O)c1ccccc1NC(=O)CSc1nnc(-c2ccc(Cl)cc2)o1 | 13
CN1CCN(c2ccccc2NC(=O)COc2ccccc2)CC1 | -12
C[C@H]1CN([C@@H](C)CO)C(=O)Cc2cc(NS(=O)(=O)c3ccc(Cl)cc3)ccc2O[C@@H]1CN(C)S(=O)(=O)c1cccs1 | 20
C[C@@H]1CN([C@@H](C)CO)C(=O)c2cc(NC(=O)Cn3cnnn3)ccc2O[C@@H]1CN(C)C(=O)NC1CCCCC1 | 10
Cc1ccc(S(=O)(=O)c2c(C)nn(C(C)(C)C)c2OC(=O)c2ccccc2C(F)(F)F)cc1 | 61
Cc1nc2cc(NC(=O)NCc3ccco3)ccc2o1 | 21
C[C@H]1CN([C@@H](C)CO)C(=O)c2cccc(NC(=O)c3ccc(-c4nccs4)cc3)c2O[C@H]1CN(C)S(=O)(=O)c1cn(C)cn1 | 19
C[C@H]1CN([C@@H](C)CO)C(=O)Cc2cc(NS(=O)(=O)c3cn(C)cn3)ccc2O[C@H]1CN(C)C | 8
NC(=O)CN1C(=O)C(O)(CC(=O)c2ccc(Cl)s2)c2ccccc21 (configuration not stated) | 19
CCn1c(SCC(=O)Nc2cccc(C(F)(F)F)c2)nnc1-c1c[nH]c2ccccc12 | 15
C[C@@H]1CCCCO[C@@H](CN(C)C(=O)Nc2ccc3c(c2)OCO3)[C@@H](C)CN([C@H](C)CO)C(=O)c2cc(NC(=O)C3CCCCC3)ccc2O1 | 21
COc1c(C)c(O)c(C)c(O)c1C(=O)CCc1ccccc1 | 45
O=C(Cn1cnc2scc(-c3ccc4ccccc4c3)c2c1=O)Nc1cccc(Cl)c1Cl | 46
CCOC(=O)CSc1nc2c(c(=O)n1-c1ccccc1OC)C1(CCCC1)Cc1ccccc1-2 | -6
COc1ccc(NC(=O)Nc2ccc3c(c2)CC(=O)N([C@@H](C)CO)C[C@H](C)[C@H](CN(C)C(=O)Nc2ccccc2)O3)cc1 | 9
CCn1c2ccccc2c2cc(NC(=O)CN3C(=O)c4ccccc4C3=O)ccc21 | 29
COc1ccc(NC(=O)Nc2cccc3c2O[C@H](CN(C)C(=O)Nc2ccc4c(c2)OCO4)[C@H](C)CN([C@@H](C)CO)C3=O)cc1 | 5
COc1ccc(NC(=O)N(C)C[C@@H]2Oc3ccc(NC(=O)NC(C)C)cc3CC(=O)N([C@H](C)CO)C[C@@H]2C)cc1 | -1
O=C(NCCCn1ccnc1)c1nn2c(C(F)(F)F)cc(-c3cccs3)nc2c1Br | 29
COC(=O)COc1cccc(NC(=O)c2cccs2)c1 | 137*
C[C@@H]1CN([C@@H](C)CO)C(=O)c2cccc(NC(=O)Nc3ccc4c(c3)OCO4)c2O[C@@H]1CN(C)Cc1ccc2c(c1)OCO2 | 29
C[C@@H]1CN([C@@H](C)CO)C(=O)c2cc(NC(=O)C3CC3)ccc2O[C@@H]1CN(C)Cc1ccc(C(=O)O)cc1 | 17
CCn1ncc(NC(=S)NCc2ccco2)c1C(N)=O | 2
CC(C)NC(=O)N(C)C[C@H]1Oc2ccc(NC(=O)CCC(F)(F)F)cc2CC(=O)N([C@@H](C)CO)C[C@H]1C | 15
CNS(=O)(=O)c1cc(-c2nnc(Nc3ccc4c(c3)OCO4)c3ccccc23)ccc1C | 71
COc1ccc(S(=O)(=O)N(C)C[C@@H]2Oc3ccc(NC(=O)NC4CCCCC4)cc3C(=O)N([C@H](C)CO)C[C@@H]2C)cc1 | 35
C[C@@H]1CN([C@H](C)CO)C(=O)c2cc(NC(=O)Cn3cnnn3)ccc2O[C@@H]1CN(C)S(=O)(=O)c1cccs1 | -5
C[C@@H]1CN([C@@H](C)CO)C(=O)c2cc(NC(=O)Cc3ccccc3)ccc2O[C@@H]1CN(C)Cc1ccc(C(F)(F)F)cc1 | 19
Cc1noc(C)c1NC(=O)Nc1ccc2c(c1)C(=O)N([C@H](C)CO)C[C@H](C)[C@H](CN(C)S(C)(=O)=O)OCCCC[C@@H](C)O2 | 21
C[C@@H]1CN([C@H](C)CO)C(=O)Cc2cc(NC(=O)Nc3ccc(C(F)(F)F)cc3)ccc2O[C@@H]1CN(C)S(C)(=O)=O | 86*
CCn1c(SCC(=O)Nc2c(Cl)cc(Cl)cc2Cl)nnc1-c1ccc(OC)cc1 | 1

New compounds follow
SMILES | NOMO-1 viab
C[C@@H]1CN([C@@H](C)CO)C(=O)c2cc(NS(=O)(=O)c3cccs3)ccc2O[C@@H]1CN(C)S(=O)(=O)c1cn(C)cn1 | 4
COc1ccc(S(=O)(=O)N(C)C[C@H]2Oc3ccc(NC(=O)Cc4ccccc4)cc3CC(=O)N([C@@H](C)CO)C[C@H]2C)cc1 | -5
C[C@@H]1CN([C@H](C)CO)C(=O)c2cc(NC(=O)Nc3ccc(F)cc3)ccc2O[C@@H]1CN(C)C(=O)Nc1ccc2c(c1)OCO2 | -12
O=C(/C=C/c1ccccc1)OC[C@]12O[C@H]1[C@@H](O)[C@@H]1C=CO[C@@H](O[C@@H]3O[C@H](CO)[C@@H](O)[C@H](O)[C@H]3O)[C@@H]12 | 22
C[C@@H]1CN([C@H](C)CO)C(=O)c2cccc(NC(=O)Nc3ccccc3)c2O[C@@H]1CN(C)Cc1ccc(C(=O)O)cc1 | -18
COc1cc(NC(=O)CSc2nnnn2-c2ccccc2)cc(OC)c1OC | 0
COc1cc(-c2nc3ccccc3s2)cc(Br)c1OCC(=O)O | -2
C[C@H](CO)N1C[C@H](C)[C@H](CN(C)C(=O)Nc2ccc3c(c2)OCO3)Oc2c(NC(=O)c3cnccn3)cccc2C1=O | 14
COc1ccc(NC(=O)Nc2ccc3c(c2)C(=O)N([C@@H](C)CO)C[C@@H](C)[C@H](CN(C)C(=O)Nc2ccc(OC)cc2)O3)cc1 | 10
Cc1noc(C)c1NC(=O)Nc1ccc2c(c1)CC(=O)N([C@H](C)CO)C[C@@H](C)[C@@H](CN(C)C(=O)Nc1cccc3ccccc13)O2 | 15
COc1nnc(-c2ccc(N3CCOCC3)c(NC(=O)COc3cccc(C)c3)c2)c2ccccc12 | 23
O=C(COc1ccc(I)cc1)Nc1cccc(-c2nnc(-c3ccco3)o2)c1 | 47
C[C@H](CO)N1C[C@H](C)[C@H](CN(C)C(=O)Nc2cccc3ccccc23)Oc2ccc(NC(=O)Nc3ccc4c(c3)OCO4)cc2CC1=O | 2
Cc1ccc(C2c3c(oc4ccccc4c3=O)C(=O)N2c2nnc(C)s2)o1 (configuration not stated) | -8
C[C@@H]1CN([C@H](C)CO)C(=O)c2cccc(NC(=O)Nc3ccccc3)c2O[C@@H]1CN(C)S(=O)(=O)c1ccc(Cl)cc1 | 19
COc1cccc(CC(CC(=O)O)C(=O)O)c1 (configuration not stated) | -10
C[C@@H]1CN([C@H](C)CO)C(=O)c2cc(NC(=O)CCCCCC(=O)Nc3ccccc3N)ccc2O[C@@H]1CN(C)S(=O)(=O)c1cn(C)cn1 | 6
O=C1c2cccc3cccc(c23)C(=O)N1CC1CCN(CC(O)COc2c(F)cc(Br)cc2F)CC1 (configuration not stated) | 41
C[C@H](CO)N1C[C@H](C)[C@@H](CN(C)Cc2ccc(C(F)(F)F)cc2)Oc2c(NS(=O)(=O)c3ccc(F)cc3)cccc2C1=O | 40
Cc1cc(=O)[nH]c(SCC(=O)N2CCc3ccccc3C2)n1 | 24
COCC(=O)Nc1cc(Sc2ccccc2)ccc1N=C(NC(C)=O)NC(C)=O | 49
C[C@@H]1CCCCO[C@@H](CN(C)C(=O)Nc2ccc3c(c2)OCO3)[C@@H](C)CN([C@H](C)CO)C(=O)c2cc(NC(=O)c3ccccc3)ccc2O1 | 23
O=C(COc1ccc([N+](=O)[O-])cc1)Nc1ccc(N2CCN(C(=O)c3ccco3)CC2)cc1 | -2
Cc1noc(C)c1NC(=O)Nc1ccc2c(c1)C(=O)N([C@@H](C)CO)C[C@@H](C)[C@H](CN(C)S(=O)(=O)c1cn(C)cn1)O2 | 12
C[C@H](CO)N1C[C@H](C)[C@H](CN(C)Cc2ccccc2)Oc2ccc(NC(=O)C3CCCCC3)cc2C1=O | 7
C[C@@H]1CN([C@H](C)CO)C(=O)Cc2cc(NC(=O)Nc3ccc(C(F)(F)F)cc3)ccc2O[C@H]1CN(C)C(=O)Nc1ccc(C(F)(F)F)cc1 | 49
C[C@H](CO)N1C[C@H](C)[C@H](CN(C)C(=O)Nc2cccc3ccccc23)Oc2ccc(NC(=O)C3CC3)cc2C1=O | 39
COc1ccc(S(=O)(=O)N(C)C[C@@H]2Oc3c(NC(=O)NC4CCCCC4)cccc3C(=O)N([C@H](C)CO)C[C@@H]2C)cc1 | 14
C[C@@H]1CN([C@@H](C)CO)C(=O)c2cccc(NC(=O)C3CCCCC3)c2O[C@@H]1CN(C)S(=O)(=O)c1ccc(Cl)cc1 | 37
